CBX7 AlphaScr: CBX7 chromodomain binding inhibitors, primary screen, biochemical, AlphaScreen | AlphaScreen His6-CBX7 / biotin-H3K27me3 peptide binding; active compounds read low | normalised signal (fraction of DMSO) (test concentration not listed) | actives 1.1% (n = 66,000) | AID 1224903, 2016; in the data active means normalised signal below about 0.5;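 further: 100 nL library stock added to about 20 µL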
Target sequence (O95931 whole entry, looked up): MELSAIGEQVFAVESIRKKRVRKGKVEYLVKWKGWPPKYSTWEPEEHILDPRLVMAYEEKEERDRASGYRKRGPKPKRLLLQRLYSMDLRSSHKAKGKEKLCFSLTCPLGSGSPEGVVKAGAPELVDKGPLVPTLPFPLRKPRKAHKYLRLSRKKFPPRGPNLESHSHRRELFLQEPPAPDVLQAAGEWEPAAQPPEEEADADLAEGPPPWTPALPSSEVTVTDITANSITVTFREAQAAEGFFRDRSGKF
CBX7 AlphaScr z-score: recorded beside CBX7 AlphaScr, whose call it bears; z-score; measured here: z-score of CBX7 signal; some inactives read as strong as hits; reference of the scale not given here;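 same signal on another scale; lower means less binding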
* marks the source's active call; other numbers are inactive results; & = joins results of further samples. This is a subset, so the mix of outcomes need not match the whole.

SMILES | CBX7 AlphaScr | CBX7 AlphaScr z-score
CCCn1c(C(C)NC(=O)c2ccc(F)cc2)nc2ccccc21 (configuration not stated) | 0.957 | -0.847
CC(C)Cn1cc(C(=O)NCc2cccnc2)c2c3ccccc3n(C)c2c1=O | 0.976 | -0.435
Cc1cccc(NC(=O)c2ccccc2NC(=O)c2cccc(S(=O)(=O)N3CCCCC3)c2)c1 | 0.895 | -1.61
Cc1ccc2nc(-c3cccc(Br)c3)c(Nc3ccccc3C)n2c1 | 0.991 | -0.0948
COc1cccc(-c2cc(C(F)(F)F)nc(N3CCN(c4ccccc4OC)CC3)n2)c1 | 1.12 | 5.57
O=C(NC1CCCCC1)NS(=O)(=O)c1ncn(Cc2ccccc2)n1 | 1.07 | 1.61
CCN(CC)CCCNC(=O)CC1Oc2ccc(C)cc2NC1=O (configuration not stated) | 0.97 | -0.705
CN(C(=O)Cn1nc(Cc2ccncc2)c2ccccc2c1=O)C1CCCCC1 | 1.06 | 1.76
NC(=O)CSc1nncc2ccccc12 | 1.04 | 0.177
COC(CNC(=O)c1ccc2c(c1)nc(C)n2-c1ccc(F)cc1F)OC | 0.989 | -0.305
Cc1c(C(=O)N2CCc3ccccc3C2)oc2ccc(S(=O)(=O)N3CCOCC3)cc12 | 1.03 | 0.26
O=C(NC1CCCCC1)c1cc(-c2cccnc2)nc2ccccc12 | 0.914 | -2.13
CCOc1ccccc1NC(=O)CN(c1ccc(C(C)C)cc1)S(=O)(=O)c1c(C)nn(C)c1C | 0.974 | -0.183
COc1ccc(-c2nn(C)c3sc(C(=O)NCCN4CCOCC4)cc23)cc1OC | 0.989 | -0.313
COc1ccc(S(=O)(=O)N(CC(=O)NCc2ccncc2)c2ccc(C)cc2)cc1 | 1.02 | 0.569
COc1ccccc1-c1cc(C(=O)Nc2ccc(F)c(Cl)c2)no1 | 0.966 | -0.896
COc1ccc(Br)cc1C(=O)Nc1ccc(Cl)cn1 | 1.3 | 1.97
CCc1ccc(-c2nc(CN3CCCC(C(=O)NCCC4=CCCCC4)C3)c(C)o2)cc1 (configuration not stated) | 0.933 | -1.84
CCOc1ccc(CCNC(=O)C2CCN(S(=O)(=O)CC)CC2)cc1OCC | 1.05 | 0.842
COc1ccc(N2C(=O)C(CC(=O)Nc3ccccc3)N(Cc3ccc(C)cc3)C2=O)cc1 (configuration not stated) | 0.994 | -0.192
COc1ccc(CCNC(=O)CCc2c(C)nc3c(c(C)nn3-c3ccc(C)cc3)c2C)cc1OC | 1.07 | 1.56
Cc1ccc2nc(-c3ccc(Cl)c(NC(=O)Cc4ccccc4)c3)oc2c1 | 0.992 | -0.215
O=C(Nc1ncc(Cc2cccc(C(F)(F)F)c2)s1)c1ccccc1Cl | 1.1 | 0.635
COC(=O)c1ccccc1NC(=O)c1cnc2scc(C)n2c1=O | 1.09 | 3.19
Cc1ccc(N(CC(=O)NCCCc2ccccc2)S(=O)(=O)c2cccnc2)cc1 | 0.888 | -1.74

Of the compounds above, two contain a CF3 group.
SMILES | CBX7 AlphaScr | CBX7 AlphaScr z-score
COc1cccc(-c2cc(C(F)(F)F)nc(N3CCN(c4ccccc4OC)CC3)n2)c1 | 1.12 | 5.57
O=C(Nc1ncc(Cc2cccc(C(F)(F)F)c2)s1)c1ccccc1Cl | 1.1 | 0.635

The listing picks up; the 2 compounds before the break are reprinted first.
SMILES | CBX7 AlphaScr | CBX7 AlphaScr z-score
COC(=O)c1ccccc1NC(=O)c1cnc2scc(C)n2c1=O | 1.09 | 3.19
Cc1ccc(N(CC(=O)NCCCc2ccccc2)S(=O)(=O)c2cccnc2)cc1 | 0.888 | -1.74
O=C(c1cc2n(n1)C(C(F)(F)F)CC(c1ccc(Br)cc1)N2)N1CCCCC1 (configuration not stated) | 1.16 | 3.18
CC(=O)Nc1ccccc1/C=C/c1ccc2c(C)ccc(O)c2n1 | 0.967 | -0.475
CCN1CCCC1CNC(=O)c1ccc2nc(N3CCC(C)CC3)sc2c1 (configuration not stated) | 0.955 | -0.979
Cc1ccc(NC(=O)C2c3ccccc3C(=O)N3CCc4ccccc4C23)nc1 (configuration not stated) | 0.3* | -0.696*
COc1cccc(NC(=O)c2cc3c(-c4ccc(Cl)cc4)nn(C)c3s2)c1 | 0.974 | -0.502
CCOc1cc2c(cc1OC)C(c1ccc(F)cc1)NCC2 (configuration not stated) | 1.03 | 0.152
COc1cc2c(C(=O)N3CCN(C)CC3)cn(CC(C)C)c(=O)c2cc1OC | 0.99 | -0.266
COCCNC(=O)c1nc(-c2ccc(OC)cc2)oc1C | 0.967 | -1.1
CC(=O)N1CCc2cc(S(=O)(=O)NCCC(=O)NCc3ccc(F)cc3)ccc21 | 1.01 | 0.282
CC1=Nc2cc(C(=O)NCCc3ccccc3)ccc2Sc2c(C)ccc(C)c21 | 0.93 | -0.896
O=C(NCCN1CCCCCC1)C1CCCN(c2nnc(-n3cccc3)s2)C1 (configuration not stated) | 0.971 | -0.637
O=C(Cn1ccc2ccccc2c1=O)NCC(=O)Nc1ccc(C(F)(F)F)cc1 | 1.04 | 0.364
CC1CCCCC1NC(=O)Nc1ccc2c(c1)N(C)C(=O)CS2 (configuration not stated) | 1.01 | 0.316
Cc1ccc2c(c1)-c1c(cnn1CC(=O)Nc1ccccc1C#N)CO2 | 0.976 | -0.457
CCOC(=O)c1c(NC(=O)c2ccccc2F)sc2c1CCN(C(=O)OCC)C2 | 1.08 | 0.895
CCc1ccc(Nc2cc(C(=O)NCc3cccnc3)c3ccccc3n2)cc1 | 0.988 | -0.194
CC1CCN(C(=O)COc2ccc3c(c2)C(=O)CC(C)(C)O3)CC1 | 0.967 | -0.26
COc1ccc(N2C(=O)c3ccccc3NC2c2cccc(F)c2)cc1 (configuration not stated) | 1.07 | 1.4
Cc1nc2c(-c3ccccc3)c(C)nn2c(C)c1CCC(=O)N1CCN(c2ccc(F)cc2)CC1 | 1.14 | 1.59
Cc1ccc(CNC(=O)CN2C(=O)CSc3ccccc32)cc1 | 1.06 | 0.952
OC(C#CCN1CCOCC1)(c1ccc(Cl)cc1)c1cccc(Cl)c1 (configuration not stated) | 1.1 | 0.771
O=S(=O)(c1ccc(Cl)cc1)c1nc(-c2ccccc2Cl)oc1N1CCOCC1 | 0.777 | -7.75
Cc1ccc(-c2csc3ncn(CC(=O)Nc4ccc(F)cc4F)c(=O)c23)cc1 | 1.02 | 0.212
CCC1Oc2ccc(C)cc2N(CC(=O)NCCN2CCCC2)C1=O (configuration not stated) | 1.05 | 1.16
CCC(C)N(CCNC(=O)C1CCN(C(=O)c2cc3sccc3n2C)CC1)C1CCCCC1 (configuration not stated) | 0.936 | -1.15

2 records picked at random from those above, as already listed:
SMILES | CBX7 AlphaScr | CBX7 AlphaScr z-score
CC1=Nc2cc(C(=O)NCCc3ccccc3)ccc2Sc2c(C)ccc(C)c21 | 0.93 | -0.896
CCC1Oc2ccc(C)cc2N(CC(=O)NCCN2CCCC2)C1=O (configuration not stated) | 1.05 | 1.16

The results go on:
SMILES | CBX7 AlphaScr | CBX7 AlphaScr z-score
COc1ccc(C)cc1NC(=O)c1cn(CC(C)C)c(=O)c2cc(OC)c(OC)cc12 | 0.94 | -2.25
O=C(Nc1ccc(Br)cc1)c1nn2c(C(F)(F)F)cc(-c3ccc(Cl)cc3)nc2c1Cl | 0.936 | -0.826
Cc1ccn2c(Nc3ccc4c(c3)OCO4)c(-c3ccsc3)nc2c1 | 0.914 | -2.29
C=C(C)Cn1c(C2CC(=O)N(c3cccc(C)c3C)C2)nc2ccccc21 (configuration not stated) | 1.01 | 0.0879
O=C(CSc1nnnn1-c1ccc(O)cc1)NC1CCCCC1 | 0.918 | -1.43
COc1ccccc1CNCc1c(C(=O)O)c(C)n(Cc2ccccc2)c1C | 1.02 | 0.645
CCCCN(CCCNC(=O)CCN1N=C(c2ccc(OC)cc2)CCC1=O)Cc1ccccc1 | 1.03 | 0.406
CC(C)=C1C2C=CC1C1C(=O)N(c3ccc(C(=O)O)cc3)C(=O)C21 (configuration not stated) | 0.979 | -0.795
O=S(=O)(CCc1nc2ccccc2[nH]1)c1ccc2ccccc2c1 | 0.965 | -0.544
COc1ccc(-c2cc(C(=O)N3CCCc4ccccc43)no2)cc1OC | 1.07 | 0.515
O=C(Nc1nnc(N2CCCCCC2)s1)Nc1ccccc1Cl | 0.807 | -0.761
CCSc1nnc(-c2ccc(C)c(S(=O)(=O)N3CCN(C)CC3)c2)c2ccccc12 | 1.06 | 0.74
CCCCN(C)CCCNC(=O)CN1C(=O)CSc2ccc(S(=O)(=O)N3CCOCC3)cc21 | 1.05 | 0.594
CCOc1ccc(NC(=O)CS(=O)(=O)Cc2nc(-c3ccc(C)cc3)oc2C)cc1 | 0.968 | -0.0674
NS(=O)(=O)c1ccc(CCNC(=O)CC2Oc3ccccc3NC2=O)cc1 (configuration not stated) | 1.17 | 1.01
CC(C(=O)NCc1ccccc1Cl)C1Sc2ccccc2N(Cc2ccc(F)cc2)C1=O (configuration not stated) | 0.973 | -0.532
COc1ccc(OC)c(NC(=O)CNC(=O)Cn2ccc3ccccc3c2=O)c1 | 1.05 | 1.39
CCc1ccc(-c2nc(CN3CCC(C(=O)NCCCOC(C)C)CC3)c(C)o2)cc1 | 0.924 | -1.16
Cc1cccc(-c2nc(Nc3ccc(F)cc3F)c3ccccc3n2)c1 | 0.968 | -0.387
CCCCc1nc(NCCC(C)C)c(C#N)c2c1CCCC2 | 1.15 | 4.51
COc1ccc(C2=NNC(c3ccccc3)=Nc3ccccc32)cc1 | 1 | 0.0341
CCc1ccc(OCC(=O)N(Cc2ccc(N(C)C)cc2)C2CCS(=O)(=O)C2)cc1 (configuration not stated) | 0.93 | -0.622
Cn1c(=O)c(=O)n(C)c2cc(S(=O)(=O)N3CCc4ccccc43)ccc21 | 0.996 | -0.028
O=C(NCc1cccs1)[C@H](CSCc1ccccc1)N1Cc2ccccc2C1=O | 0.884 | -2.64
COc1ccc(Nc2cc(C(=O)NCc3ccc(Cl)c(Cl)c3)c3ccccc3n2)c(OC)c1 | 0.863 | -3.47
New compounds follow
SMILES | CBX7 AlphaScr | CBX7 AlphaScr z-score
FC(F)(F)c1nc2ccccc2nc1-c1cccc(Cl)c1 | 1&1.19 | 0.0497&1.79
CC1CCC(NC(=O)C2(C)CCC(=O)N2CCN2CCOCC2)CC1 (configuration not stated) | 1.08 | 1.3
COc1cccc(C2CC(c3ccc(Br)cc3)Nc3ncnn32)c1OC (configuration not stated) | 0.97 | -1.03
CC1CN(c2nc(-c3ccccc3)nc3ccccc23)CC(C)O1 (configuration not stated) | 1.01 | 0.0346
O=C(NCCN1CCOCC1)c1ccc2c(c1)N(Cc1ccc(Cl)cc1)CCS2 | 0.989 | -0.239
COc1ccc(-n2nc(C(=O)NCC(=O)Nc3cc(C)ccc3OC)c3ccccc3c2=O)cc1 | 1.16 | 3.21
CCOC(=O)C1CCN(C(=O)c2c(-c3c(Cl)cccc3Cl)noc2C)CC1 | 1.01 | 0.0493
Cc1cccc(NC(=O)c2cccc(Br)c2)n1 | 0.955 | -0.427
COc1ccc(CNC(=O)C2CCN(S(=O)(=O)c3ccc(F)cc3)CC2)cc1 | 1.05 | 2.26
Cc1ccc(C)c2[nH]c(=O)c(CCNC(=O)c3ccc(F)c(F)c3)cc12 | 0.973 | -0.679
COc1ccc(C2=NN(CCC(=O)NCc3ccccc3Cl)C(=O)CC2)cc1 | 0.964 | -0.497
Cc1ccccc1OCCn1c(=N)n(C(C)C)c2ccccc21 | 1.07 | 1.35
CC(NC(=O)C1CCC(=O)N1Cc1ccccc1Cl)c1ccc2c(c1)OCCO2 (configuration not stated) | 1.08 | 2.17
O=C(NCc1nnc(SC/C=C/c2ccccc2)o1)c1cccs1 | 1 | 0.0659
CCC(C)NC(=O)C1c2ccccc2C(=O)N1Cc1cc(Br)ccc1OC (configuration not stated) | 1.07 | 0.946
O=C(NC1CCCC1)C1CCCN(c2nnc(-n3cccc3)s2)C1 (configuration not stated) | 0.99 | -0.326
O=C(C1CCCN(Cc2cccnc2)C1)N1CCCCCC1 (configuration not stated) | 1.03 | 0.782
CCCN1CCN(CCCNC(=O)CCCN2C(=O)CSc3ncccc32)CC1 | 0.85 | -2.14
CN(CCNC(=O)c1ccc2c(c1)NC(=O)c1ccccc1S2)C1CCCCC1 | 1.17 | 1.27
COc1cccc(CNC(=O)C2c3ccccc3C(=O)N3CCc4cc(OC)c(OC)cc4C23)c1 (configuration not stated) | 1.07 | 1.7
CCNC(=O)CC1Sc2ccc(C(F)(F)F)cc2NC1=O (configuration not stated) | 1.01 | 0.294
Cc1sc(-n2cccc2)c(C(=O)NC(C)CCc2ccccc2)c1C (configuration not stated) | 1.08 | 1.78
CCCCCc1ccc(-c2ccc(C(=O)Nc3ccccc3)cc2)nc1 | 1.03 | 0.605
Cc1ccc(NC(=O)CCc2c(C)nc3ncnn3c2C)cc1Cl | 1.09 | 1.71
COc1ccc(C(C(=O)NC2CCCC2)N2CCCCC2)cc1 (configuration not stated) | 1.04 | 1.63
CCc1nc(N2CCC(C)CC2)c(C#N)c2c1COC(C)(C)C2 | 1.04 | 0.471
COc1ccc(CN2CCN(Cc3cccc(Cl)c3)CC2)cc1OC | 0.904 | -1.15
Brc1ccc2nc(-c3ccccc3)c(Nc3ccc4c(c3)OCO4)n2c1 | 1.02 | 0.249

Ordered by the number under CBX7 AlphaScr z-score (lowest first): some entries from above.
Molecule	CBX7 AlphaScr z-score
Cc1ccn2c(Nc3ccc4c(c3)OCO4)c(-c3ccsc3)nc2c1	-2.29
CC(C)=C1C2C=CC1C1C(=O)N(c3ccc(C(=O)O)cc3)C(=O)C21 (configuration not stated)	-0.795
O=C(NCCN1CCOCC1)c1ccc2c(c1)N(Cc1ccc(Cl)cc1)CCS2	-0.239
O=C(Cn1ccc2ccccc2c1=O)NCC(=O)Nc1ccc(C(F)(F)F)cc1	0.364
Cc1ccccc1OCCn1c(=N)n(C(C)C)c2ccccc21	1.35

Bioassay records (PubChem BioAssay)
